Source: PubChem BioAssay (National Center for Advancing Translational Sciences (NCATS))
VDR inh – inhibitors of human vitamin D receptor. Potency, µM, without a hit: max response, negative = inhibition, usual class: inhibitors. actives 0.93% (n = 400,000). VDR-SRC2-3 peptide fluorescence polarization, 2 h. P11473; active means well fitted inhibition curve with a large enough effect; inconclusive means small, poorly fitted or top-dose-only effect, or another doubt; inactive means no such curve, though single readings can be large or run the other way; further: series mostly up to about 120 µM
Target sequence (P11473 whole entry, looked up): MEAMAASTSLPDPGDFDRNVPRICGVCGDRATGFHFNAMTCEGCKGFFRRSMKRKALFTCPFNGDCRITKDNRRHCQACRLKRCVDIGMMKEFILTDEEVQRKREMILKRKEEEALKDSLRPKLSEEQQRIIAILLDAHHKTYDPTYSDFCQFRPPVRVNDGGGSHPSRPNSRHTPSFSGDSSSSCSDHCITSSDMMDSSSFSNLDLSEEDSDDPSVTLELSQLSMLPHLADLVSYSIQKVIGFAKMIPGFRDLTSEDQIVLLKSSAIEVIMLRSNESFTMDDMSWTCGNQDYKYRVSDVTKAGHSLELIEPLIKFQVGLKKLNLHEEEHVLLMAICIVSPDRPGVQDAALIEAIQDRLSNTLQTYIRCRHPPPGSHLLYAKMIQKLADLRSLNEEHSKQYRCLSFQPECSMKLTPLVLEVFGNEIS
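After 23 nl compound addition and a short centrifugation, plates sat for 2 hours at ambient temperature; polarization of fluorescence then indicated loss of VDR binding to peptide SRC2-3.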
* = called active by the depositor; ? = inconclusive; & = joins results of further samples. On the % scale 0 is the no-effect control and ±100 the full control effect; potency means the concentration at half of the fitted maximal effect. An excerpt, so the mix of outcomes need not match the whole.

VDR inh | Compound
-18% | COc1ccc(NC(=O)c2sc3nc(C)c(C(=O)Nc4ccc(C)cc4C)c(-c4ccc(C)o4)c3c2N)cc1
-9% | Cc1cc(-c2ccccc2)nc2cc(C(=O)OC(C)C)nn12
-13% | COc1ccc(C(=O)NC2CCCc3c2cnn3-c2ccccc2F)cc1OC (centres undefined)
14% | COc1cccc(OCc2nc3ccccc3n2CCOc2ccc(C)cc2)c1
0% | Cc1ccc(C)c2[nH]c(=O)c(CCNC(=O)CC(C)C)cc12
-13% | O=C(Nc1ccc(-c2ccc(N3CCCCC3)nn2)cc1)c1ccco1
-6% | COc1ccc(-n2ncc(C(=O)N3CCN(c4cc(C)ccc4C)CC3)c2C2CCN(C(=O)OC(C)(C)C)CC2)cc1
5% | O=c1cc(Nc2ccc3c(c2)OCCO3)[nH]c(=O)n1Cc1ccc(F)cc1
-5% | CCc1ccc(NC(=O)Cn2ccn(Cc3ccccc3OC)c(=O)c2=O)cc1
-16% | COC(=O)CCN(C)CCC(=O)OC
-4%&4% | COc1ccc(C(CC(=O)Nc2ccccn2)N2Cc3ccccc3C2=O)cc1OC (centres undefined)
-7% | CCn1nnnc1NCc1ccc(SC)cc1
6% | Cc1ccc(C)c(Cn2c(=O)n(-c3ccccc3)c(=O)c3c4c(sc32)CCCC4)c1
-12% | Cc1c(-c2cc(C(=O)O)on2)cnn1C
-17% | O=C(CCN1C(=O)c2ccccc2C1=O)NCc1ccc(F)cc1
1% | O=C(CSc1n[nH]c(=O)[nH]c1=O)c1ccc(Cl)cc1Cl
-21% | C/C1=C\CCC2C(/C=C(\C)CC1)OC(=O)C2CN1CCCCC1 (centres undefined)
-15% | COc1cccc(NC(=O)CSc2nc3cc(OC)c(OC)cc3c3nc(-c4ccccc4)nn23)c1
-5% | COc1cc(NC(=O)c2nccnc2C(=O)O)cc(OC)c1
1% | NC(=S)NNC(=O)/C(=C/c1ccc(Br)cc1)NC(=O)c1ccccc1
0% | COc1ccc(CCNC(=O)c2ccc3c(Cl)c4c(nc3c2)CCCC4)c(OC)c1
9% | COc1ccc(NCc2ccsc2)cc1
1% | CCOC(=O)c1cn(-c2c(C)n(C)n(-c3ccccc3)c2=O)c2c(F)c(F)c(F)cc2c1=O
-4% | O=C(Nc1cccc(-c2cccc(F)c2)c1)C1CCN(C2CCC2)CC1
13% | CN(C)c1cccc(C(=O)Nc2ccc(-c3nc4ccccc4s3)cc2)c1
1% | CS(=O)(=O)N(CC(=O)Nc1ccc(S(=O)(=O)N2CCCC2)cc1)c1cccc(F)c1
-14% | CC(NS(=O)(=O)c1ccc(Cl)cc1)C(c1cccs1)N1CCN(C)CC1 (centres undefined)
-16% | CCOc1cc(/C=C2\SC(=S)N(NS(=O)(=O)c3ccc(C)cc3)C2=O)ccc1O
-7% | Cc1ccc(C(=O)N/N=C/c2sc(=O)n(Cc3cccc(C(=O)O)c3)c2Cl)cc1
20% | OC(COc1ccc2ccccc2c1)Cn1cncn1 (centres undefined)
-7% | Cc1ccccc1C(=O)Nc1c2c(nc3ccccc13)CCCC2
-4% | CCSC1=NCCN1C(=O)c1c(-c2ccccc2Cl)noc1C
? | CCOc1ccc(NC(C)=O)cc1
6% | CC1CCN(c2nc(/C=C/c3ccccc3)nc3ccccc23)CC1
0% | CCN(C[C@H]1N[C@@](C)(C(=O)OC)[C@H]2C(=O)N(C)C(=O)[C@@H]12)S(=O)(=O)c1ccc(-c2ccccc2)cc1
8% | CCCNC(=O)c1ccccc1NC(=O)c1nsc2ccccc12
-10% | CCc1c(-c2ccccc2)nc(N)c(C#N)c1-c1cccs1
-8% | CCc1ccc(NC(=O)c2sc3nc(C)c(Cl)c(C)c3c2N)cc1
13% | Cc1nnsc1S(=O)(=O)Cc1ccccc1C(F)(F)F
0% | O=C(CN1CCc2cc3c(cc2C1)OCCCO3)Nc1ccc(S(=O)(=O)N2CCCC2)cc1
3% | Cc1ccc(OC(=O)c2ccc(Cl)c([N+](=O)[O-])c2)cn1
3% | COc1ccc(S(=O)(=O)NNC(N)=S)cc1
10% | CN(C)c1ccc(CN(Cc2ccco2)C(=O)c2ccc(F)cc2)cc1
0% | CCCCn1c(N)c(N(CCOC)C(=O)c2cc(S(=O)(=O)N3CCOCC3)ccc2Cl)c(=O)[nH]c1=O
15% | COc1ccc(NC(=O)NC(C(F)(F)F)C(F)(F)F)cc1
-6% | O=C(c1ccco1)N1CCN(Cc2nc(Cc3ccccc3)no2)CC1
9% | O=C(Nc1nnc(SCCC2OCCO2)s1)C1CC(=O)N(c2ccccc2)C1 (centres undefined)
? | O=C(COc1ccccc1)Nc1nc(-c2cccs2)cs1
0% | COc1ccc2oc(C(=O)OCC(=O)Nc3cccc(S(=O)(=O)N4CCOCC4)c3)c(C)c2c1
5% | CCOC(=O)c1c[nH]c2ccc([N+](=O)[O-])cc12

(more compounds)
VDR inh | Compound
-11% | Cc1nc(-c2ccc(S(=O)(=O)Nc3ccc(Br)cc3Cl)s2)cs1
13% | Cc1nn2cnc3sc4c(c3c2nc1=O)CCCC4
-10% | Cc1csc(NC(=O)C2CCCN2C(=O)Oc2ccccc2)n1 (centres undefined)
5% | Cc1ccc(C2SCC(C(=O)O)N2C(=O)c2ccc(F)cc2)cc1 (centres undefined)
3% | CCc1nc2ccccc2c(C(=O)Nc2cc(C)ccc2C)c1C
-5% | Cc1ccc(Nc2nnc(SCC(=O)NC3CCS(=O)(=O)C3)s2)c(C)c1 (centres undefined)
7% | CC(C)N(Cc1nc(-c2ccc(Cl)cc2)no1)C(=O)CN(C)S(=O)(=O)c1ccc(Cl)cc1
-10% | Cc1ccnc(N2CCN(C(=O)CSc3nc4ccccc4nc3N3CCC(C)CC3)CC2)c1
8%&0%&16% | CCN(CC)Cc1cc(Nc2ccnc3cc(Cl)ccc23)ccc1O
-10% | O=C(CCNS(=O)(=O)c1ccccc1)NCCSc1ccc(Br)cc1
9% | CSc1ccc(CCNC(=O)C(C)n2nc(C)c3sc4ccccc4c3c2=O)cc1 (centres undefined)
-2% | CCc1nnc(NC(=O)C(=O)c2cc(C)n(-c3ccccc3)c2C)s1
9% | C[C@@H](C(=O)Nc1ccc2c(c1)OCCO2)n1c(=O)[nH]c2ccccc2c1=O
-2% | COc1ccc(CCNS(=O)(=O)c2c(C)nc3sccn3c2=O)cc1OC
-10% | CC(C)N1C(=O)c2ccc(C(=O)O)cc2C1=O
14% | COCCNC(=O)C(c1ccc(Cl)cc1)N(C(=O)CCC(=O)Nc1ccccn1)C1CCCC1 (centres undefined)
-11% | O=[N+]([O-])c1cc(CN2CCOCC2)c2cccnc2c1O
-10% | O=C(NCc1ccccn1)c1nc(Cn2cc([N+](=O)[O-])cn2)no1
10% | Cc1ccc(NC(=O)c2c(C)oc3ccc(O)c(CN(C)Cc4ccccc4)c23)c(C)c1
-20% | CCN(CC(=O)NCc1ccc(F)cc1)C(=O)c1ccc2c(c1)OCO2
11% | Cc1ccc(C2=NN3C(C(=O)c4ccccc4)Oc4ccccc4C3C2)cc1 (centres undefined)
-17%&-9% | CCc1ccc(-c2cc(C)no2)cc1S(=O)(=O)Nc1ccc(C)cn1
5% | CC(C)Cc1nc(SCC(=O)Nc2ccc(S(N)(=O)=O)cc2)n[nH]1
1% | CCCC(=O)NC1C2CC3CC(C2)CC1C3 (centres undefined)
17% | COC(=O)c1ccccc1NC(=O)/C=C/C(=O)O

Laid out differently: results already given.
O=C(CCNS(=O)(=O)c1ccccc1)NCCSc1ccc(Br)cc1
  VDR inh: -10%
CSc1ccc(CCNC(=O)C(C)n2nc(C)c3sc4ccccc4c3c2=O)cc1 (centres undefined)
  VDR inh: 9%
CCc1nnc(NC(=O)C(=O)c2cc(C)n(-c3ccccc3)c2C)s1
  VDR inh: -2%

Looked up above.
VDR inh, C[C@@H](C(=O)Nc1ccc2c(c1)OCCO2)n1c(=O)[nH]c2ccccc2c1=O : 9%
VDR inh, O=C(NCc1ccccn1)c1nc(Cn2cc([N+](=O)[O-])cn2)no1 : -10%
VDR inh, CSc1ccc(CCNC(=O)C(C)n2nc(C)c3sc4ccccc4c3c2=O)cc1 (centres undefined) : 9%
VDR inh, CCN(CC(=O)NCc1ccc(F)cc1)C(=O)c1ccc2c(c1)OCO2 : -20%
VDR inh, CC(C)Cc1nc(SCC(=O)Nc2ccc(S(N)(=O)=O)cc2)n[nH]1 : 5%

Next structures
VDR inh | Compound
-3% | O=C(Nc1ccccc1)C1=C(N2CCOCC2)/C(=C/c2cccnc2)CC1
? | CC(C)C[C@@H](CNCC(=O)[C@H](CC(C)C)NC(=O)c1[nH]cnc1C(=O)N[C@@H](C)CN)NC(=O)c1nc[nH]c1C(=O)N[C@@H](CC(C)C)C(=O)O
4% | Cc1cc(C(=O)CSc2nc3ccc(Cl)cc3[nH]2)c(C)n1C
6% | COc1ccc(NC(=O)c2ccco2)cc1NC(=O)c1cc(Br)ccc1Cl
2% | O=c1[nH]c(N/N=C/c2ccccc2)nc2ccccc12
-3% | O=C(/C=C/c1cccs1)Nc1cccnc1
-8%&-14% | CCCNC(=O)C(Cc1ccccc1)NS(=O)(=O)c1ccc2c(c1)c(=O)n(C)c(=O)n2C (centres undefined)
9% | CC(C)(C)C(=O)Oc1ccc(S(=O)(=O)Nc2ccccc2C(=O)NCC(=O)O)cc1
15% | O=C(c1csc2c1CCCCC2)N1CCN(c2ncccn2)CC1
15% | Cc1ccc(NC(=O)C(=O)NCC(c2ccc3c(c2)OCO3)N2CCN(c3ccccc3)CC2)cc1 (centres undefined)
-14% | CCCCC1=CC2=CC(=O)C(C)(OC(=O)CC)C(=O)C2=CN1c1ccccc1 (centres undefined)
-14% | Cc1cc(NC(=O)CCN2CCCCC2)ccc1Br
-3% | O=c1c2oc3ccccc3c2ncn1Cc1ccc(F)cc1
-7% | CCOC(=O)CC[C@H](NC(=O)Cn1cnc2c(NCc3ccccc3)ncnc21)C(=O)OCC
-2% | CC(C)(C)OC(=O)NCCCC[C@H](NC(=O)c1nc[nH]c1C(=O)NC1CCN(C(=O)OC(C)(C)C)CC1)C(=O)OC(C)(C)C
-18% | CCC(=O)NC(=S)Nc1ccc(NC(=O)COc2ccc(Cl)c(C)c2)cc1
8% | COC(=O)c1ccccc1NC(=O)C1CCN(C(=O)N2CC(C)Oc3ccccc32)CC1 (centres undefined)
1% | COc1cccc(C2=CC(c3ccccc3F)n3ncc(C(=O)Nc4ccc(C)cc4)c3N2)c1 (centres undefined)
-2% | CN1CCN2c3ncccc3Cc3ccccc3[C@@H]2C1
2% | NC(=S)Nc1cccc2cccnc12
? | CS(=O)(=O)Nc1nc2n(n1)C(c1ccccc1)C=C(c1ccc(Br)cc1)N2 (centres undefined)
-6% | COc1ccc(/C=N/NC(=O)c2cc(C)n(-c3ccccc3)c2C)cc1OC
4% | Cc1ccc(NC(=O)CSc2nc3nc(C)cc(C)c3c(=O)[nH]2)cc1
-8% | O=C(Cc1cccs1)N1CCN(S(=O)(=O)c2ccc(Cl)c(C(F)(F)F)c2)CC1
-5% | CCOC(=O)C1=C(C)N(CCCC(=O)O)C(=O)NC1c1ccc2ccccc2c1 (centres undefined)
-1% | Cc1oc2ncn(C)c(=O)c2c1C(=O)N1CCN(c2ccc(Cl)cc2)CC1
-14% | CCCOc1cc(C)c(S(=O)(=O)NCCOC)cc1C
15% | CCCOc1ccc(NC(=O)C2CC(=O)N3CCCN=C3S2)cc1 (centres undefined)
-18% | Cc1ccccc1S(=O)(=O)Cc1ccc(C(=O)NCc2cccnc2)o1
-13% | C=CCn1c(SCC(=O)NCC(c2ccccc2)N(C)C)nc2sc3c(c2c1=O)CCC3 (centres undefined)
-5% | CCn1c(CSc2nncn2-c2ccc(OC)cc2)nc2cc(S(=O)(=O)N(C)C)ccc21
-17% | CCCN(CC(=O)Nc1ccccc1OC)C(=O)c1cc(-c2cccs2)nn1-c1ccccc1
-2% | COCCNC(=O)COc1ccc(N(C)S(=O)(=O)c2ccc3ccccc3c2)cc1
0% | CC(c1ccccc1)C1C(C#N)=C(N)OC2=C1C(=O)CCC2 (centres undefined)
-8% | O=C(NCCc1ccccc1)C(=O)c1c(-c2ccccc2)cc2ccccn12
-5% | CCn1c(CC(=O)Nc2ccccc2F)nnc1SCC(=O)NC1CCCC1
-5% | COC(=O)c1ccc(S(=O)(=O)N2CCCCCC2)cc1
0% | COCCN(CCOC)C(=O)CC(=O)N(CCOC)CCOC
-7% | COc1cc(C2C(C#N)=C(N)Oc3cc(C)oc(=O)c32)cc2c1OCO2 (centres undefined)
-1% | O=C(N/N=C/C=C/c1ccccc1)c1cccnc1
-9% | CN1CCN(S(=O)(=O)c2cccc(C(=O)Oc3cccc(Br)c3)c2)CC1
-1% | Cc1nnc(SCCCOc2ccccc2)nc1C
-6% | COc1ccc(NC(=O)CN(C)C(=O)c2cc(-c3ccco3)nc3ccccc23)cc1
9% | CCS(=O)(=O)N1Cc2ccccc2CC1C(=O)Nc1ccc(C)cc1 (centres undefined)
-4% | CC1(C)C2CC=C(/C=N/NC(=S)NCCc3ccccc3)C1C2 (centres undefined)
? | Clc1cccc(-c2nn3c(Cn4cnc5ccccc54)nnc3s2)c1

Fetched by compound from the list above:
VDR inh | Compound
? | Clc1cccc(-c2nn3c(Cn4cnc5ccccc54)nnc3s2)c1
-1% | Cc1oc2ncn(C)c(=O)c2c1C(=O)N1CCN(c2ccc(Cl)cc2)CC1
-17% | CCCN(CC(=O)Nc1ccccc1OC)C(=O)c1cc(-c2cccs2)nn1-c1ccccc1
-4% | CC1(C)C2CC=C(/C=N/NC(=S)NCCc3ccccc3)C1C2 (centres undefined)
-6% | COc1ccc(NC(=O)CN(C)C(=O)c2cc(-c3ccco3)nc3ccccc23)cc1
-14% | CCCOc1cc(C)c(S(=O)(=O)NCCOC)cc1C
